Mtb H37Rv – M. tuberculosis H37Rv growth inhibitors, H37Rv strain (AID 1626) | M. tuberculosis H37Rv growth inhibition; higher % means a stronger effect | inhibition, % at 10 µM; hits with a dose series show IC50 in µM | actives 0.95% (n = 220,000);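 active = confirmed in a dose series; inconclusive = inhibition above 80% but not taken into the dose series; inactive = below 80% or under 30% at every dose of the series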;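 also: bacteria incubated seven days before Alamar blue readout; 0% = bacteria only wells and 100% = bacteria with antibiotic wells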
Arbovirus inh – arbovirus infection inhibition; actives 0.37% (n = 200,000); AID 1251; inhibition, % at 10 µM; arbovirus infection cell-based antiviral screen;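 active = inhibition from about 30%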;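 also: bluetongue infection of BSR cells; cell survival read as ATP light after 72 h; 0% = infected wells without compound and 100% = uninfected wells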
YopH PTP inh – YopH (Yersinia) phosphatase inhibition. inhibition, %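 (about 10 µM by stock and volumes)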. actives 0.16% (n = 140,000). fluorescence Ex485/Em525. AID 898;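 active = inhibition of 50% or more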;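 also: controls were vehicle for no effect and minimum signal wells for full effect; inactives centre near -20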
Mtb bLac sens – beta-lactam sensitization of Mtb H37Rv; M. tuberculosis H37Rv growth with meropenem, percent inhibition; hits of this screen are not shown here; AID 434955; inhibition, % at 25 µM; actives 0.27% (n = 330,000);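 active = about 74% or more and at least 40 points above the plate without the antibiotic, then above 30% in a dose series; inconclusive = first-round hits that could not be retested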;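 also: growth measured after seven days incubation then overnight dye step; 0% = bacteria only wells and 100% = bacteria with antibiotic; twin plates without the antibiotic show which effects depend on it; some results filed as inactive read as strong as hits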
RecA intein inh – blocks M. tuberculosis RecA intein splicing. cell-free RecA intein splicing, fluorescence. inhibition, %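 (about 9 µM by stock and volumes)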. actives 0.75% (n = 290,000); in the data active = inhibition above about 30%; inconclusive = no clear call, values can overlap the other calls;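 also: 0% = vehicle wells and 100% = reference inhibitor control wells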
Target sequence (P9WHJ3 whole entry, looked up): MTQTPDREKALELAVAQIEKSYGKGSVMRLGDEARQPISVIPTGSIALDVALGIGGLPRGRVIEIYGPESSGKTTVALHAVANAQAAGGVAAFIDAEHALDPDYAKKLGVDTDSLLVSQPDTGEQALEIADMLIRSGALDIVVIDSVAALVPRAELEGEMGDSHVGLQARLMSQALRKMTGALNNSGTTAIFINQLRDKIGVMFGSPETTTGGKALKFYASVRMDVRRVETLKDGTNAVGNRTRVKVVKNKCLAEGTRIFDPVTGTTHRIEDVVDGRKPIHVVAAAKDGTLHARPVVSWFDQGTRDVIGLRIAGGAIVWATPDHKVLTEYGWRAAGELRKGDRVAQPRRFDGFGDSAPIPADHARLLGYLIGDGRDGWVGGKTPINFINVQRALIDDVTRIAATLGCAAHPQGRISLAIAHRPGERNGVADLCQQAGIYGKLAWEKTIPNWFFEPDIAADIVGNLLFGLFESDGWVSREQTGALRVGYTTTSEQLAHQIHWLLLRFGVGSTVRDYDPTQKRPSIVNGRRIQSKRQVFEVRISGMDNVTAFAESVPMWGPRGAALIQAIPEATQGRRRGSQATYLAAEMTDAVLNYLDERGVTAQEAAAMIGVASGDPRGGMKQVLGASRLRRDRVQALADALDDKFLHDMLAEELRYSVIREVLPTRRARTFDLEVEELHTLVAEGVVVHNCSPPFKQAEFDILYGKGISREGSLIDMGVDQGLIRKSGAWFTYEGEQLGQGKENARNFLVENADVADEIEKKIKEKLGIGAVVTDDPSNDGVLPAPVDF
Arbovirus inh repeat – further read-out of Arbovirus inh, marked with its call; inhibition, %; measured here: 10K subset replicate screen; many hits read low in the repeat;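 first of two repeat runs on a subset; 0% = infected and 100% = uninfected wells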
* hit, by the source's call; ? = inconclusive; . = no result given.

SMILES	Mtb H37Rv	Arbovirus inh	YopH PTP inh	Mtb bLac sens	RecA intein inh	others
COC(=O)C1C2C=CC3(CN(c4ccc(Cl)c(F)c4)C(=O)C13)O2 (stereo unspecified)	-1%	3	-41	2	1.1	Arbovirus inh repeat=6
O=C(CSc1nnc(-c2ccco2)n1Cc1ccccc1)NC(=O)NCc1ccco1	-12%	-2	-49	5	-1.0
COCCNC(=S)Nc1ccccc1Cc1ccccc1	2%	-4	.	-6	-1.0
Cc1cc(N/N=C/c2cccc(Cl)c2)nc(NCc2ccccc2)n1	33%	-41	-20	99	8.2
Cc1snc(S(=O)(=O)Cc2c(Cl)cccc2Cl)c1C#N	3%	9	-36	-3	-0.3
CC1(C)CC(=O)C2=C(C1)OC1OC(=O)CC21C (stereo unspecified)	0%	4	.	-2	-1.8
CCOC(=O)Cn1c(=O)c2c(nc(Br)n2Cc2ccccc2Cl)n(C)c1=O	-3%	5	-5	-9	-2.5
Cc1cc2cc(CNC(=O)c3cccs3)ccc2[nH]1	2%	-1	-30	8	-0.4
Cc1ccc(NS(=O)(=O)c2ccc(C(=O)OCC(=O)NCC3CCCO3)cc2)cc1 (stereo unspecified)	-1%	3	.	-3	-1.4
COc1ccc(C(=O)NC(=S)Nc2ccccc2[N+](=O)[O-])cc1OC	-1%	-6	.	-2	-2.2
Cc1cc(=O)[nH]c2nnc(SCC(=O)N3CC(C)OC(C)C3)n12 (stereo unspecified)	.	.	.	0	-1.5
COc1cccc(NC(=O)COc2ccccc2)c1	.	.	.	4	-1.0
COc1ccccc1N1CC(C)C(=O)NC1=S (stereo unspecified)	0%	-1	-21	13	-0.2
CC(=O)Nc1ccc(S(=O)(=O)N(CCc2ccccc2)CC(=O)N/N=C/c2ccc(C(=O)O)cc2)cc1	3%	2	.	11	-1.2
CCC(=O)N1CCN(c2ccc(NC(=S)NC(=O)c3cc4ccccc4o3)cc2)CC1	.	.	.	97	-0.5
Cc1cccc2cc(CN(CC3CCCO3)C(=O)c3cccnc3)c3nnnn3c12 (stereo unspecified)	3%	1	-42	-7	0.1
CC1Sc2ccc(S(=O)(=O)NCCc3ccc(S(N)(=O)=O)cc3)cc2NC1=O (stereo unspecified)	.	.	.	-1	-0.2
O=C(NNS(=O)(=O)c1ccccc1)c1ccc(F)cc1	.	.	.	2	-3.4
CS(=O)(=O)Nc1ccc(C(=O)Nc2ccccc2-c2ccccc2)cc1	.	.	.	0	-3.3
CC(=O)Nc1ccc(-c2csc(NC(=O)C3CCN(S(=O)(=O)c4cccs4)CC3)n2)cc1	9%	-24	1	-4	4.0

Brought forward from above: six compounds; new compounds follow.
SMILES	Mtb H37Rv	Arbovirus inh	YopH PTP inh	Mtb bLac sens	RecA intein inh	others
CCC(=O)N1CCN(c2ccc(NC(=S)NC(=O)c3cc4ccccc4o3)cc2)CC1	.	.	.	97	-0.5
Cc1cccc2cc(CN(CC3CCCO3)C(=O)c3cccnc3)c3nnnn3c12 (stereo unspecified)	3%	1	-42	-7	0.1
CC1Sc2ccc(S(=O)(=O)NCCc3ccc(S(N)(=O)=O)cc3)cc2NC1=O (stereo unspecified)	.	.	.	-1	-0.2
O=C(NNS(=O)(=O)c1ccccc1)c1ccc(F)cc1	.	.	.	2	-3.4
CS(=O)(=O)Nc1ccc(C(=O)Nc2ccccc2-c2ccccc2)cc1	.	.	.	0	-3.3
CC(=O)Nc1ccc(-c2csc(NC(=O)C3CCN(S(=O)(=O)c4cccs4)CC3)n2)cc1	9%	-24	1	-4	4.0
CCCCCCCCn1c(=O)c(C(=O)OCC)c(O)c2ccccc21	8%	-5	-3	90	8.6
COc1cc(CC(=O)Nc2cccc(C(F)(F)F)c2)cc(OC)c1OC	7%	-2	-11	-3	5.4
COc1ccc(/C=C(\NC(=O)c2ccc([N+](=O)[O-])cc2)C(=O)NCCN2CCOCC2)cc1	.	.	.	-2	-1.7
Cc1c(NC(=O)C2(c3ccccc3)CCCC2)c(=O)n(-c2ccccc2)n1C	.	0	-12	-9	2.8
COc1ccccc1C(=O)c1cc2ccc(O)cc2oc1=O	-5%	-5	.	4	-3.0
COc1ccc(C)cc1N(C(=O)COc1ccccc1)c1nc2ccccc2s1	3%	1	-24	-2	-0.8
Cc1c(NC(=O)Nc2ccc3c(c2)OCO3)c(=O)n(-c2ccccc2)n1C	0%	1	-15	1	-1.0
O=C(CN(Cc1ccccc1F)C(=O)Cn1nnc(-c2cccs2)n1)NC1CCCCC1	-3%	4	9	8	1.3
CCC1CCCCN1CCCNC(=O)c1csc2c1CCCCC2 (stereo unspecified)	.	.	.	90	1.1
CCN1CCC(NC(=O)Nc2cc(Cl)ccc2OC)CC1	6%	-1	.	-10	-0.1
O=S(=O)(CCc1nc2ccccc2s1)c1ccc(Cl)cc1	-1%	-3	3	-5	0.5
CCN(CC)CCN(C(=O)c1cc2ccccc2cc1OC)c1nc2ccc(OC)cc2s1	.	.	.	37	9.5
CCOC(=O)c1sc(NC(=O)CSc2nccn2C)nc1C	.	.	.	18	1.1
C/C=C(/C)C(=O)OC1c2c(ccc3ccc(=O)oc23)OC(C)(C)C1OC(C)=O (stereo unspecified)	1%	-5	24	-5	3.2
NC(=O)CSc1nnc(NC(=O)c2ccc3ccccc3c2)s1	.	.	.	91	-2.3
COC(=O)c1ccc(NC(=S)NCCc2ccc(OC)cc2)cc1	6%	-2	.	-1	-0.1
Cc1nnc(SCC(=O)N2CCN(c3ccccc3)CC2)n1-c1ccccc1	3%	1	21	7	-0.7
C[N+]1(CC2COC3(CCCCC3)O2)CCCC1 (stereo unspecified)	-2%	4	-8	?	1.6
O=C(Nc1ccccc1)c1cccc(C(=O)Nc2ccccc2)n1	.	.	.	-2	-0.6
O=C(CC1C(=O)NCCN1Cc1cccc(Oc2ccccc2)c1)NCCn1cccn1 (stereo unspecified)	2%	-3	.	2	1.4
COc1ccccc1NC(=S)NCc1ccccc1Cl	.	.	.	0	-1.6
N#CC(c1ccccc1)c1ccc(=O)[nH]n1 (stereo unspecified)	4%	-3	.	-6	2.6
O=c1cc2c(n[nH]1)-c1ccccc1CC2	.	.	.	0	-0.6
Cc1cc(C)n2nc(C(=O)Nc3ccc4c(c3)OCO4)cc2n1	0%	-2	-12	-3	-0.9
COc1ccc(S(=O)(=O)Nc2cccc(-c3ccc(N4CCCCCC4)nn3)c2)c(OC)c1	.	.	.	9	1.3
COc1ccc(C(=O)C2CCCN(C(=O)Cc3c(C)noc3C)C2)cc1OC (stereo unspecified)	6%	-2	.	-4	-0.7
O=C(Cc1ccccc1)NCC(=O)N/N=C/c1cccs1	.	.	.	1	-0.2
COc1cc(C2(c3ccc(O)c(OC)c3)C(=O)Nc3c(Br)cc(Br)cc32)ccc1O	.	.	.	7	49*
CC(C(=O)N1CCOCC1)N1C(=O)c2cccc3cccc(c23)C1=O (stereo unspecified)	-3%	6	.	4	-0.7
CC(=O)Nc1ccc(-c2ccc(NC(C)=O)c(O)c2)cc1O	-1%	.	.	-6	-3.5
CN1CCSc2ccc(C(=O)NCc3ccccc3)cc21	.	.	.	-1	-6.4
COc1ccc(C(=O)c2ccc(OC)cc2OC)cc1	0%	.	.	4	1.2
Cc1ccc(N2CCN(C(=O)N3CCCC3)CC2)cc1Cl	-2%	4	-18	4	0.9
CCCc1ccc(C(=O)O/N=C(\N)c2ccccn2)cc1	.	.	.	2	0.6
Cc1cc(C)n(CC(=O)Nc2cccc(C(F)(F)F)c2)n1	1%	4	.	4	-0.9
C/C=C/C=[N+](\[O-])C(C)/C(=N/O)c1ccc(F)cc1 (stereo unspecified)	-2%	-1	-41	-5	-1.9
Oc1ccccc1-c1cc(C(F)(F)C(F)F)nc(-c2ccccc2)n1	5%	-3	-44	5	1.8
Cc1ccc(C2CC(c3cccs3)n3nc(N)nc3N2)cc1 (stereo unspecified)	-5%	1	-26	-12	1.6
Cc1ccc(N(CC(=O)N2CCOCC2)S(=O)(=O)c2ccccc2)cc1	-5%	6	6	-7	-2.4
O=C(C1=C(O)C(=O)N(CCOCCO)C1c1cccc([N+](=O)[O-])c1)c1cccs1 (stereo unspecified)	-7%	.	.	-15	0.4

By substructure, the compounds so far containing a CF3 group (2)
SMILES	Mtb H37Rv	Arbovirus inh	YopH PTP inh	Mtb bLac sens	RecA intein inh	others
COc1cc(CC(=O)Nc2cccc(C(F)(F)F)c2)cc(OC)c1OC	7%	-2	-11	-3	5.4
Cc1cc(C)n(CC(=O)Nc2cccc(C(F)(F)F)c2)n1	1%	4	.	4	-0.9

(list continues)
SMILES	Mtb H37Rv	Arbovirus inh	YopH PTP inh	Mtb bLac sens	RecA intein inh	others
CCN=C1S/C(=C\c2sccc2C)C(=O)N1CC	9%	-1	-24	9	3.9
Clc1ccccc1NC1=NCCCS1	.	.	.	-1	0.9
CCOc1ccc(N2C(=O)S/C(=C\c3cc(OC)c(OC)c(OC)c3)C2=O)cc1	-4%	.	.	1	0.4
Cc1onc(-c2c(F)cccc2Cl)c1C(=O)NC(C)c1ccccc1 (stereo unspecified)	.	.	.	2	0.0
COc1cc2c(cc1OC)C(CC#N)=NC(C)(C)C2	-3%	-1	-13	19	6.2
O=C(Cc1ccccc1)c1ccc(Cl)cc1	1%	.	.	-8	-0.4
Cc1cccc(NC(=O)Nc2cnccn2)c1	1%	-6	.	3	1.6
CCOCCCn1c(=S)[nH]c2cc(C(=O)NCCOC)ccc2c1=O	5%	6	-29	-6	0.9
CCCc1nnc(NC(=O)c2c(O)c3c([nH]c2=O)CCCC3)s1	-9%	.	.	1	8.4
COc1ccc(NCc2nc3ccccc3n2CCOc2ccc(C)cc2)cc1	18µM*	-20	-11	5	3.2
COc1ccccc1NC(=O)Cn1nnc(-c2ccccc2NS(=O)(=O)c2ccccc2)n1	6%	6	-2	4	1.1
CN(Cc1ccc2ccccc2c1)C(=O)c1ccc(C(F)(F)F)cc1	.	.	.	4	12
O=C(NCCN1CCc2ccccc2C1)Nc1ccc(F)cc1	2%	1	-36	2	1.2	Arbovirus inh repeat=-5
CCCS(=O)(=O)N1CCCC(c2nc(-c3ccc(OC)cc3)no2)C1 (stereo unspecified)	-3%	0	-18	-1	0.3
O=C(O)c1cccc(-c2ccc(/C=c3/sc4nc5ccccc5n4c3=O)o2)c1	-15%	.	.	-8	-7.9
CCc1nnc(NC(=O)C2Cc3ccccc3CN2S(=O)(=O)CC)s1 (stereo unspecified)	3%	4	.	0	2.9
CC(=O)N=C1SC2CS(=O)(=O)CC2N1c1ccccc1Cl (stereo unspecified)	-12%	-5	-29	-3	-0.5
C[C@H](N)CN1CCc2ccc(Br)cc21	-7%	.	.	1	-4.9
Cc1ccc(C(=O)NN(CCC(=O)NC(C)(C)C)C2=NS(=O)(=O)c3ccccc32)cc1	-1%	4	-11	5	0.6
CC12C=CC3(O1)C(C(=O)N1CCCOC13)C2C(=O)O (stereo unspecified)	-4%	1	.	3	-1.9

Copied from the entries so far, 4 compounds:
SMILES	Mtb H37Rv	Arbovirus inh	YopH PTP inh	Mtb bLac sens	RecA intein inh	others
CCN=C1S/C(=C\c2sccc2C)C(=O)N1CC	9%	-1	-24	9	3.9
Clc1ccccc1NC1=NCCCS1	.	.	.	-1	0.9
CCOc1ccc(N2C(=O)S/C(=C\c3cc(OC)c(OC)c(OC)c3)C2=O)cc1	-4%	.	.	1	0.4
Cc1onc(-c2c(F)cccc2Cl)c1C(=O)NC(C)c1ccccc1 (stereo unspecified)	.	.	.	2	0.0

The listing continues.
SMILES	Mtb H37Rv	Arbovirus inh	YopH PTP inh	Mtb bLac sens	RecA intein inh	others
CCCOC(=O)Cn1cnc2scc(-c3ccc(C)cc3)c2c1=O	.	.	.	17	0.3
O=C(CCS(=O)(=O)c1ccccc1)Nc1ccccc1F	3%	6	.	1	5.8
Cc1ccnc(NC(=O)c2ccccc2NC(=O)c2ccc(Cl)cc2Cl)c1	.	.	.	-2	-0.8
CC(C)c1ccc(NC(=S)NNC(=O)c2cccs2)cc1	2%	0	.	1	10
Fc1ccccc1COc1ccc(-c2nnn(Cc3ccccc3F)n2)cc1	8%	7	-41	-4	0.4
O=C(Cn1ccc2cc(S(=O)(=O)N3CCCC3)ccc21)NCc1ccco1	.	.	.	19	-2.5
O=C(C1CC(c2ccccc2O)=NO1)N1CCCC1 (stereo unspecified)	-9%	0	-26	-8	-0.1
CCS(=O)(=O)N1CCC(C(=O)NCc2ccc(F)cc2Cl)CC1	0%	17	-36	-4	3.4
CCN(CC)S(=O)(=O)c1cc(NC(=O)COC(=O)c2ccc(NC(=O)CC#N)cc2)ccc1C	4%	-2	.	-9	-0.6
Cc1nc2nc(SCC(=O)NCCN3CCOCC3)nn2c(C)c1Cc1ccccc1	-2%	2	11	-7	5.2

2 entries picked at random from those above, as already listed:
SMILES	Mtb H37Rv	Arbovirus inh	YopH PTP inh	Mtb bLac sens	RecA intein inh	others
COc1ccc(S(=O)(=O)Nc2cccc(-c3ccc(N4CCCCCC4)nn3)c2)c(OC)c1	.	.	.	9	1.3
O=C(Cc1ccccc1)NCC(=O)N/N=C/c1cccs1	.	.	.	1	-0.2

Source: PubChem BioAssay (several laboratories)

Some of the compounds tested; rates above refer to the full screens.
